NPR1 antag: human Npr1 receptor antagonism | P16066 | HEK293 hNpr1 GloSensor cGMP, ANP-stimulated luminescence | Potency, µM (highest dose often 46.3 µM), for the others: top-dose activity change, negative = inhibition, hits mostly inhibitors | 1.6% of 76,000 active; active = well fitted inhibition curve with a large enough effect; inconclusive = small, poorly fitted or top-dose-only effect; inactive = no such curve, though single readings can be large or run the other way;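 also: nearly all actives have a fitted effect of over 60% in size; nearly all hits also lower the signal before the agonist is added; a reference antagonist and vehicle were the controls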
Target sequence (P16066 whole entry, looked up): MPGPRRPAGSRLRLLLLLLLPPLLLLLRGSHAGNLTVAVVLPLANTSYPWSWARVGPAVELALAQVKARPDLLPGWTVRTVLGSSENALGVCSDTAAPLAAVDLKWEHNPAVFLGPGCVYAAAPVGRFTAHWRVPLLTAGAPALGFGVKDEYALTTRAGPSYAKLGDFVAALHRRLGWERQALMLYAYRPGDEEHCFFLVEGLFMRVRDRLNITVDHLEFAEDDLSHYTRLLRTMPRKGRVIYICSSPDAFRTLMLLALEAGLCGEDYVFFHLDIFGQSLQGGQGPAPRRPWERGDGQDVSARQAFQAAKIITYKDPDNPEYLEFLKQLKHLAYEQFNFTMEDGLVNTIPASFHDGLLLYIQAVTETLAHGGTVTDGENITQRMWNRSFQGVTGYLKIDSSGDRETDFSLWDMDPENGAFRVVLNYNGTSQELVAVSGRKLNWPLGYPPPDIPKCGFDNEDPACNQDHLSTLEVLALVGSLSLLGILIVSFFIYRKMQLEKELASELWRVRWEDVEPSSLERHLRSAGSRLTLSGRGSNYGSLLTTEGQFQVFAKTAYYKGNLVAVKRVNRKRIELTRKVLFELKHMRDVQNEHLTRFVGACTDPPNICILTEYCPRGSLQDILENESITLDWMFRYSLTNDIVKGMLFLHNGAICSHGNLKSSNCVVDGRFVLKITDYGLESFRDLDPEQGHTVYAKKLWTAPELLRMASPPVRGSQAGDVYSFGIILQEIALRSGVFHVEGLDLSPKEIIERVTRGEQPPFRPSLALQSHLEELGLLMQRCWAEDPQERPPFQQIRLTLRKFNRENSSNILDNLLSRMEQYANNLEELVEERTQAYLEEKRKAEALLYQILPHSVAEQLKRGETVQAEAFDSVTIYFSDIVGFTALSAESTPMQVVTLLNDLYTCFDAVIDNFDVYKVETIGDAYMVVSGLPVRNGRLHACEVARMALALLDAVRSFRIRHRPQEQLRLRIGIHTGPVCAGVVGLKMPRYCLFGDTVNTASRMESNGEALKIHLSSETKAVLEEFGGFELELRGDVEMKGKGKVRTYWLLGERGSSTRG
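HEK293 cells stably expressing human Npr1 and cGMP GloSensor pGS-40F, loaded 2 h with 2% GloSensor reagent, given compound 30 min at room temperature. Luminescence read before and 20 min after 0.1 nM hNppA.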
* marks the source's active call; other numbers are inactive results; ? = inconclusive; & = joins results of further samples; [ ] = remark or other dose. % is scaled to controls: 0 for no effect and ±100 for the full control effect; potency is read from the fitted curve at half-maximal effect.

SMILES	NPR1 antag
CCc1nc(C)c(CC(=O)NCc2cc(F)cc3c(C)c(CC)[nH]c23)c(=O)[nH]1	-3%
Cc1nc(-c2ccccc2OC2CN(C(=O)c3ccnn3C)C2)no1	1%
CNC(=O)c1cccc(-c2cnc3[nH]cc(CC(=O)N(C)c4ccccc4)c3c2)c1	28µM*
CCN1C(=O)C2(CCN(C(=O)N(C)C)CC2)c2ccccc21	1%
CNC(=O)[C@@H]1CN(S(=O)(=O)c2cccc(Cl)c2)C[C@H]1C1CCN(C)CC1	0%
COc1ccc(-c2nnc3n2CCN(C(=O)c2ccc(C)cc2)C3)cc1	0%[70.6 µM]
COc1cccc(C(O)c2nc(C(=O)Nc3ccccc3)c(C)o2)c1 (configuration not stated)	?
CN(Cc1ccccc1)Cc1cn([C@H]2CO[C@H]3[C@@H]2OC[C@@H]3NS(C)(=O)=O)nn1	5%[70.6 µM]
Cc1cc(C(=O)N2CCC3(CC2)c2[nH]c4ccccc4c2CCN3C)n(C)n1	5%
COc1cccc(CN2CCCC(c3nc(CCOc4cccc(C)c4)no3)C2)c1 (configuration not stated)	-30%
COc1ccc(C(=O)NC(C(=O)NCC(C)C)C2CCN(C(=O)c3cccs3)CC2)cc1 (configuration not stated)	-1%
Cc1ccc2nc(CN(C)C(=O)C3CCC(=O)N(C4CCCCCC4)C3)[nH]c2c1 (configuration not stated)	-2%
COc1cccc(CC(=O)N2CC[C@H](CO)[C@H](NC(=O)C3CC3)C2)c1	7%
CC(C)(C(=O)O)c1cnc(N2CC[C@H](CO)[C@H](O)C2)nc1N1CCOCC1	4%
COCc1ccc2c(c1)c(OC(C)(C)C(=O)NC1CCOCC1)nn2Cc1ccccc1	8%[70.6 µM]

Part of the list above, in CSV form.
molecule,NPR1 antag
CNC(=O)c1cccc(-c2cnc3[nH]cc(CC(=O)N(C)c4ccccc4)c3c2)c1,28µM*
CCN1C(=O)C2(CCN(C(=O)N(C)C)CC2)c2ccccc21,1%
CNC(=O)[C@@H]1CN(S(=O)(=O)c2cccc(Cl)c2)C[C@H]1C1CCN(C)CC1,0%
COc1ccc(-c2nnc3n2CCN(C(=O)c2ccc(C)cc2)C3)cc1,0%[70.6 µM]
COc1cccc(C(O)c2nc(C(=O)Nc3ccccc3)c(C)o2)c1 (configuration not stated),?

Other structures follow:
SMILES	NPR1 antag
O=C(NCCc1ccccc1)N1CCCCCC1CN1CCOCC1 (configuration not stated)	7%
CC(=O)N1CCCN(Cc2nnc(C(=O)N3CCC[C@@H]3c3cccc(F)c3)n2-c2ccccc2)CC1	-1%
CCC(O)CNc1ccc(-c2nc(COC)no2)cn1 (configuration not stated)	8%
CN(Cc1ccc(-c2ccccc2)cc1)Cc1cccc(C(F)(F)F)c1	11%&40%
CCOc1cc(=O)n2c(c1C(=O)NCC1CCCO1)CCCCC2 (configuration not stated)	0%
O=C(CC1CCN(C(=O)Nc2cccc(F)c2)C1)NC1CC1 (configuration not stated)	2%
Cc1ccc(-c2nnc([C@H]3CCN(C(=O)C4CC4)C3)o2)cc1	6%[70.6 µM]
CCC(O)c1cc2n(n1)CCN(C(=O)c1cnc(C)nc1-c1ccccc1)C2 (configuration not stated)	3%
O=C(c1ccc(Cl)nc1)N1CCC2(CC1)CC(=O)N(c1ccccc1)c1ccccc1O2	11%
O=C(Cc1ccccc1Cl)NCc1nnc2ccc(-c3ccccc3)nn12	2%
Cc1noc(-c2ccn3c(CNC(=O)c4ccoc4)nnc3c2)n1	4%
COc1ccc(NC(=O)CC2CCCCN(Cc3ccccc3)C2=O)c(C)c1 (configuration not stated)	-13%
CC(C)CNC(=O)CN1CN(c2ccccc2)C2(CCN(C(=O)NC3CCCCC3)CC2)C1=O	2%
Cc1ccc(CN(C)C2CCc3nn(C)c(=O)n3CC2)nc1 (configuration not stated)	6%
O=C(c1ccc(F)c(F)c1)N1CCC2(CC1)NC(=O)N(Cc1ccccc1)C2=O	-25%

3 compounds already listed, sorted by the value under NPR1 antag, largest number first:
SMILES	NPR1 antag
O=C(NCCc1ccccc1)N1CCCCCC1CN1CCOCC1 (configuration not stated)	7%
CCC(O)c1cc2n(n1)CCN(C(=O)c1cnc(C)nc1-c1ccccc1)C2 (configuration not stated)	3%
CCOc1cc(=O)n2c(c1C(=O)NCC1CCCO1)CCCCC2 (configuration not stated)	0%

Next part:
SMILES	NPR1 antag
O=C(Cc1cccnc1)NC1CC(=O)N(Cc2cccc3ccccc23)C1 (configuration not stated)	0%
Cc1ccc(CN2CCc3nc(C(=O)Nc4cccnc4)oc3CC2)o1	-10%[70.6 µM]
COc1ccc(CN2CCNc3cc(-c4ccccc4)ncc3C2)cc1	-20%[70.6 µM]
Cc1cc(N2CCC(NS(=O)(=O)c3cn(C)c(C)n3)C2=O)ccc1F (configuration not stated)	-5%
CCC(=O)N1CCCN(Cc2ccncc2)C(c2ccccc2)CC(=O)NCC1 (configuration not stated)	9%
CC1=C[C@@H](CN(C)CCC#N)[C@H](C(C)C)C[C@H]1Cc1nnc(-c2ccccc2F)o1	?
CC(=O)N1CCCC(c2[nH]ccc2C(=O)N2CCN(c3ccccc3)CC2)C1 (configuration not stated)	-1%
COc1ccc(NC(=O)O[C@@H]2CO[C@H]3[C@@H]2OC[C@@H]3NC(=O)C2CCCCC2)cc1	?
O=C(C[C@@H]1CCNC[C@@H]1Cc1cc(CSc2ccccc2)on1)NC1CCCCC1	-4%[70.6 µM]
CCNC(=O)c1cccnc1OC1CCN(Cc2ccccn2)C1 (configuration not stated)	3%
COc1ccccc1-c1cn2c(n1)CO[C@@H](CNC(=O)c1cccnc1)C2	9%[70.6 µM]
COc1ccc(C(=O)N2CCCC(n3cc(-c4nc(C)no4)nn3)C2)cc1OC (configuration not stated)	-2%
N#Cc1cccc(C(=O)NC2CCN(c3cc(-c4ccccc4)[nH]n3)CC2)c1	0%
CCCCCNC(=O)c1noc(-c2ccccc2F)n1	-9%
CCc1nc(-c2c3n(c(=O)n(CC(=O)Nc4ccc(Cl)cc4)c2=O)CCCC3)no1	1%
COc1ccccc1N1CCCc2ncc(C(=O)NCCc3c[nH]c4ccccc34)cc21	-21%[70.6 µM]
OCCc1cnc2c(-c3nc(-c4cccnn4)no3)cnn2c1	-2%
CC(C)CC(=O)N1CCC(N2CC(OCC3CC3)C23CCOCC3)CC1 (configuration not stated)	1%
CC(=O)N1CCCC(c2[nH]ccc2C(=O)NCCCn2cccn2)C1 (configuration not stated)	4%
Cc1cccc(OCCc2noc(C3CCN(S(=O)(=O)C(C)C)C3)n2)c1 (configuration not stated)	-15%
COc1ccc(C)cc1NC(=O)N1C[C@@H](F)C[C@H]1C(=O)N1CCCCC1	-13%
c1ccc(Nc2cnc3ccc(-n4ccnc4)nn23)cc1	-7%[70.6 µM]
C[C@H]1[C@@H]2[C@@H](O)C([C@H](C)C(=O)NCc3cccnc3)CC[C@@]2(C)CC[C@@H]1NC(=O)c1ccncc1 (some centres not stated)	5%
COCC[C@]1(O)CCN(Cc2cc(F)ccc2-n2cccn2)C[C@H]1C	-14%
COCc1ccc(C(=O)N2CCN(C(C)=O)CC(O)C2)s1 (configuration not stated)	14%
Cc1c(C(=O)N2C[C@@H](C(=O)O)C[C@H](C(=O)NC3CC3)C2)sc2ccccc12	7%
CN1CCC(NC[C@H]2O[C@@H](CO)[C@@H](O)[C@H]2N2CCN(c3ccc(F)cc3)CC2)CC1	2%
O=c1[nH]c(-c2ccncc2)nc2c1CCN(S(=O)(=O)N1CCCC1)C2	6%
CC1=C[C@@H](CNCc2ccncc2)[C@H](C(C)C)C[C@H]1Cc1nnc(-c2ccc(C)cc2)o1	?
O=C1COc2ccc(-c3cc(F)cc(F)c3)nc2CN1Cc1ccccc1F	1%[70.6 µM]
CC(C)c1ccc(N2C(=O)N[C@@H]3CCN(C(=O)c4ccc(N(C)C)cc4)[C@@H]3C2=O)cc1	0%[70.6 µM]
CCN1c2cc(C(=O)Nc3ccc(OC)c(Cl)c3)ccc2C(=O)N2CCCCCC21 (configuration not stated)	-22%
CC(C)(C)c1cc(CC2(NCc3ccccc3O)COC2)no1	0%[70.6 µM]
CC(C)CCCC(=O)N1CCC2(CC1)Nc1ccccc1NC2=O	-30%
Cc1ccc(OCc2nc(C3CCN(C(=O)Cn4ccnc4)C3)no2)cc1 (configuration not stated)	2%
CC(C)C[C@@H]1N[C@H](C(=O)NCc2ccccc2)Cc2c[nH]c3cccc1c23	-18%[70.6 µM]
O=C(NC1CCCC1)O[C@H]1COCCN(c2nc3ccccc3o2)C1	-1%[70.6 µM]
O=C1Cc2c(-c3ccc4ccccc4c3)n[nH]c2CN1Cc1ccccn1	-3%[70.6 µM]
COc1ccc(C)cc1NC(=O)CN1C(=O)NC2(CCS(=O)(=O)CC2)C1=O	-3%
O=C(O)c1cccc2c1CCN2C(=O)c1ccc(F)cc1	?
Cn1cnc(S(=O)(=O)N2CC(N(C3CCOCC3)S(C)(=O)=O)C2)c1	3%
Cc1cccc(OCC(=O)Nc2ccc(-c3nnc4n3CCCC4)cc2)c1	-5%
Cc1ccc(CN2CCC(N(CCC(C)C)C3CCOCC3)CC2)o1	-1%
COc1ccccc1-c1nc(C2CC(=O)N(c3ccc(C)cc3)C2)no1 (configuration not stated)	-2%
CCC(CNc1nc(CCN)nc2ccccc12)N(C)CC (configuration not stated)	1%
COc1cccc(-c2cc(C(=O)N3CCC4(CC3)CC(OC)CCO4)[nH]n2)c1 (configuration not stated)	0%
Cc1cc2c(SCC(=O)N3CC[C@@](C)(O)[C@@H](O)C3)ncnc2s1	2%
CC(=O)NC1(C)CCN(Cc2cnc(-c3ccccc3OCc3ccccc3)s2)CC1	-1%[70.6 µM]
COc1ccc2[nH]c3c(c2c1)CCNC31CCN(C(=O)C(C)C)CC1	15%
N[C@@H](Cc1cnc[nH]1)C(=O)N1CCC(c2nccn2Cc2ccccn2)CC1	-2%
Fc1ccc(Cc2noc(-c3nc(-c4ccncc4)no3)n2)cc1	-30%
Cc1noc([C@@H](C)NC(=O)Nc2cccnc2)c1C(=O)O	1%[70.6 µM]
COc1ccc(CNC(=O)N2CCC3(C2)C(=O)N(C)c2ccccc23)cc1 (configuration not stated)	0%
C[C@@H]1CN(C(=O)c2cccc(-c3ncc[nH]3)c2)CC[C@@]1(O)C1CCOCC1	-3%
Cn1c(CNC(=O)C2CC(=O)N(c3n[nH]c4ccccc34)C2)nc2ccccc21 (configuration not stated)	0%
COCC(=O)Nc1nc2c(s1)C[C@@H]1[C@](C)(CO)[C@H](O)CC[C@@]1(C)[C@@H]2CC(=O)NCc1cccnc1	-1%
Cc1ccc(CNC(=O)CN2C(=O)NC3(CCC(C)CC3)C2=O)cc1 (configuration not stated)	-10%
C[C@@H]1CN(Cc2nc(C(N)=O)no2)CC[C@@]1(O)C1CCOCC1	?
CS(=O)(=O)N(C1CC1)C1CCOC2(CCN(C(=O)c3ccncc3)CC2)C1 (configuration not stated)	-1%
O=C1CCN(S(=O)(=O)c2ccccc2)CCCN(C(=O)CCc2ccccc2)CCN1	-15%

Fetched by compound from above:
SMILES	NPR1 antag
Fc1ccc(Cc2noc(-c3nc(-c4ccncc4)no3)n2)cc1	-30%
C[C@@H]1CN(C(=O)c2cccc(-c3ncc[nH]3)c2)CC[C@@]1(O)C1CCOCC1	-3%

Later entries
SMILES	NPR1 antag
CN(CC(O)CO)c1ccc(C(=O)N2CCC(Oc3cccnc3)CC2)cn1 (configuration not stated)	2%
CCCc1noc(-c2cccn3c(CNC(=O)c4ccc(OC)cc4C)nnc23)n1	4%
CCc1nc(-c2c3n(c(=O)n(CC(=O)Nc4ccc(C)c(C)c4)c2=O)CCCC3)no1	0%
COC[C@@H]1CN(C(=O)COc2cccc(C)c2)C[C@H]1c1nc(C)no1	-6%
COc1ccccc1CCC(=O)NC1CCN(c2cc(-c3ccccc3)[nH]n2)CC1	-2%
COC[C@@H]1CN(C(=O)c2occc2C)C[C@H]1c1nc(C2CC2)no1	-14%
O=C(CCc1nnn2c1CN(C(=O)Nc1ccccc1)CC2)NC1CC1	-6%
Cn1cc(CN2CCN(Cc3cccc(F)c3)CC2)ccc1=O	-1%
COc1cccc(Nc2nccc3c(=O)cc(-c4ccccn4)oc23)c1	-17%[70.6 µM]
Cc1ccc(CN2CCC3(CC2)Cc2ccccc2NC3=O)cc1	3%[70.6 µM]
COc1cccc(NC(=O)c2c(OC)cc(=O)n3c2CCCC3)c1	-2%
O=C1CCN(S(=O)(=O)c2ccccc2)CCCC(c2nc(-c3cccnc3)no2)CCN1 (configuration not stated)	3%
CNC(=O)N1C[C@@H](CN(C)C)[C@H](NC(=O)c2ccccc2OC(F)(F)F)C1	-1%
Cc1ccc(-c2cc3c(=O)n(CCNC(=O)c4ccc(C)s4)ccn3n2)c(C)c1	0%
COc1ccc(-c2ccc3c(c2)C(=O)N2CC[C@H](NC(=O)c4cccc(F)c4)[C@H]2C(=O)N3)cc1	-3%
N#Cc1ccc(C(=O)N2CCCCCCNC(=O)[C@@H]3CCC[C@@H]32)cc1	2%
CCN(CC)Cc1cnc2c(C(=O)NCCc3c[nH]c4ccccc34)cnn2c1	0%
NCCC(=O)N1CCC(n2nccc2NC(=O)c2ccc3c(c2)OCO3)CC1	-3%
Cn1cccc1C(=O)N1CC[C@H](CO)[C@H](NC(=O)C2CC2)C1	1%
Cc1oc2c(c1C(=O)N1CCOCC1)CN(CCC(C)C)CC2	-3%
COc1ccc(-c2cc(N3CCCN(C(=O)c4cccc(Cl)c4)CC3)n[nH]2)cc1	?
Cc1cnc(C(=O)N[C@@H]2CCC[C@@H]2C(=O)N2CCN(C(C)C)CC2)cn1	-7%
O=C(NC1CCCCC1)N1CCC(c2noc(-c3ccccn3)n2)C1 (configuration not stated)	3%
COc1ccc(OC)c(CN2CC[C@@H]3OCC(=O)N(Cc4ccccc4)[C@H]3CC2)c1	-6%[70.6 µM]
CCCNc1ccc2nnc(C)n2n1	2%
CC(C)c1cc(C(=O)NC(C)c2nc(-c3cccnc3)no2)on1 (configuration not stated)	4%
COCCN1CCCN(C(=O)c2ccc(F)c(F)c2)c2ccccc21	-9%

Screening results from PubChem.

Some of the compounds tested; rates above refer to the full screens.
